Vaccinia Venus = inhibitors of vaccinia virus (Venus reporter). Potency, µM (series often up to 36.5 µM), inactives show at the highest dose activity change, negative = inhibition, usual class: inhibitors. actives 0.46% (n = 330,000). Vaccinia virus Venus reporter expression, fluorescence. AID 720580; active means well fitted inhibition curve with a large enough effect; inconclusive means small, poorly fitted or top-dose-only effect; inactive means no such curve, though single readings can be large or run the other way; tested in A549 cells; note: nearly all actives have a fitted effect of over 30% in size; inactives centre near -10
Vaccinia mCherry = vaccinia inhibition (mCherry reporter); Potency, µM (highest dose often 36.5 µM), for inactives: at the top dose activity change, negative = inhibition, most hits filed as inhibitors; actives 0.63% (n = 310,000); Vaccinia virus mCherry reporter infection, fluorescence; about a quarter of the inactives have no number; active = well fitted inhibition curve with a large enough effect; inconclusive = small, poorly fitted or top-dose-only effect; inactive = no such curve, though single readings can be large or run the other way; tested in A549 cells; note: nearly all actives have a fitted effect of over 35% in size; inactives centre near -10
Numbers without * were called inactive; i = inactive; ? = inconclusive; · = not tested or not shown; & = joins results of further samples; [ ] = another dose, or the depositor's remark. % is set by controls: 0 for no effect and ±100 for the full control effect; potency is the fitted concentration of half-maximal effect.

Every second line gives: Vaccinia Venus, Vaccinia mCherry
- O=C(CSc1nnc(CNC(=O)c2c(F)cccc2F)o1)NCC1CCCO1 (stereo unspecified)
 : -9.9%, i
- Cc1nc2ccc(S(=O)(=O)NC(C(=O)N3CCCCCC3)C(C)C)cc2s1 (stereo unspecified)
 : -2.2%, 27.5%
- CCc1ccc(-c2cc(C(F)(F)F)n3nc(C(=O)Nc4c(C)nn(Cc5ccccc5C)c4C)cc3n2)s1
 : -13.5%, -2.1%
- Cc1cc(C)nc(SCc2ccc(C(=O)N/N=C/c3ccccn3)cc2)n1
 : -23.9%, ?
- CN(C(=O)c1ccc(Cl)nc1)C1(c2ccccc2Cl)CCCCC1=O (stereo unspecified)
 : -5.0%, -17.8%
- COc1ccccc1NS(=O)(=O)c1ccc(NC(=O)Cc2cccs2)cc1
 : -13.0%, -2.0%
- O=C(NCCNc1ccc([N+](=O)[O-])cc1)c1ccc(Cl)cc1
 : -10.9%, -17.4%
- CS/C(=C\[N+](=O)[O-])Nc1ccccc1
 : 1.3%, -8.0%
- Cc1cc(C)nc(SCC(=O)Nc2ccc(N3CCOCC3)cc2)n1
 : -6.8%, -11.9%
- COc1cccc(C(=O)NCC2Cc3cccc(-c4cccnc4)c3O2)c1 (stereo unspecified)
 : -13.3%, -9.8%

Structural class: the entries above containing fluorine
Every second line gives: Vaccinia Venus, Vaccinia mCherry
- O=C(CSc1nnc(CNC(=O)c2c(F)cccc2F)o1)NCC1CCCO1 (stereo unspecified)
 : -9.9%, i
- CCc1ccc(-c2cc(C(F)(F)F)n3nc(C(=O)Nc4c(C)nn(Cc5ccccc5C)c4C)cc3n2)s1
 : -13.5%, -2.1%

Additional compounds follow.
Every second line gives: Vaccinia Venus, Vaccinia mCherry
- C[C@H](CO)N1C[C@H](C)[C@@H](CN(C)S(=O)(=O)c2ccccc2)Oc2ccc(NS(=O)(=O)c3ccccc3)cc2C1=O
 : -3.4%, ?
- COc1ccccc1-c1nnc(SCC(=O)NC2CCCCC2)n1C
 : -6.5%, i
- CCCn1c(/C=C/c2ccco2)nc2ccccc21
 : 5.8%, -8.8%
- COc1cc2ncnc(NCc3ccc(C)cc3)c2cc1OC
 : -14.6%, -12.4%
- Cc1ccc(S(=O)(=O)N2[C@@H](c3ccccc3)C(C(=O)O)=CC[C@H]2c2cccs2)cc1
 : -4.5%, i
- C#CCOCCOCCOCCNc1nc(N2CCN(C(=O)[C@H](Cc3ccc(O)cc3)n3cc([C@@H](N)C(C)CC)nn3)CC2)nc(N2CCN(C(=O)[C@H](CCCCN)n3cc([C@@H](N)CO)nn3)CC2)n1 (stereo partly specified)
 : -4.1%, i
- Cc1ccc(C(C(=O)NC2CCCCC2)N(C(=O)c2csnn2)C2CC2)cc1 (stereo unspecified)
 : -5.4%, -5.1%
- CC(=O)c1ccc(NC(=O)c2cc(C)nc3ccccc23)cc1
 : -15.0%, -16.3%
- O=C(NCCCN1CCOCC1)c1ccc(N2CCOCC2)c([N+](=O)[O-])c1
 : -10.7%, i
- CCOC(=O)C(Cc1c[nH]c2cc([N+](=O)[O-])ccc12)(NC(C)=O)C(=O)OCC
 : -9.6%, i
- Cc1nnsc1C(=O)Nc1cccc(Cl)c1C
 : 14.9%, -7.7%
- COc1ccc(C)cc1NC(=O)C(NC(=O)c1cc(OC)c(OC)c(OC)c1)C(C)C (stereo unspecified)
 : 0.0%, -8.7%
- Cc1ccc(S(=O)(=O)Nc2cccc(-c3ccc(N4CCCCC4)nn3)c2)s1
 : -21.4%, -12.0%
- CCOC(=O)c1ccc(NC(=O)CC2C(=O)N(c3cccc(OC)c3)C(=O)N2CCOC)cc1 (stereo unspecified)
 : -13.4%, ·
- CCOC(=O)CSc1nnc(-c2ccc(OC)cc2)o1
 : 7.7%, -1.7%
- Cn1nccc1NS(=O)(=O)c1ccc(C(C)(C)C)cc1
 : -6.0%, i
- CCOc1ccc(NC(=O)C2CCCN2C(=O)OCc2ccccc2)cc1 (stereo unspecified)
 : -7.1%, -4.1%
- CC(=O)c1ccc(NC(=O)c2nn(C)c3c2COc2ccccc2-3)cc1
 : -8.3%, -13.6%
- C[C@@H]1C=C(C(=O)NCc2ccccc2)O[C@H](OCc2ccc(CO)cc2)C1
 : -10.3%, -1.1%
- OCCNCCOc1ccccc1-c1ccccc1
 : -12.9%, -24.2%
- COc1ccccc1OCCOCCOc1ccc(C)cc1[N+](=O)[O-]
 : -21.3%, -7.9%
- Cc1ccc(C(=O)O/N=C(\N)c2ccc(Br)cc2)cc1
 : -8.5%, -18.3%
- O=C(CCCOc1ccc(Cl)cc1Cl)n1nnc2ccccc21
 : -6.6%, -11.7%
- COc1cc(NC(=O)c2c(C)nn(-c3ccc(F)cc3)c2-n2cccc2)cc(OC)c1
 : -0.4%, -8.3%
- CC(=O)OCc1cc(-c2nn(C)c(=O)c3ccccc23)ccc1C
 : -1.2%, -11.2%
- C=CCn1c(NC(=O)c2ccc(C)cc2)nc2ccccc21
 : -8.4%, ?
- COc1ccc(S(=O)(=O)Nc2ccc(C)cc2)cc1N(C)S(=O)(=O)c1ccc(Cl)cc1
 : 17.8µM*, ?
- Oc1c(C(c2ccccc2)N2CCCCC2)ccc2ccccc12 (stereo unspecified)
 : -3.5%, -28.6%
- O=C(Cc1cccc(NC(=O)C2CCCN(C(=O)c3ccccc3)C2)c1)Nc1cccc(C(=O)N2CCCCC2)c1 (stereo unspecified)
 : -1.6%, -20.0%
- O=C(CNC(=O)c1ccc(Cl)cc1)N/N=C/c1cccnc1
 : 13.3%, 5.3%
- CCOc1ccc(CNC(=O)CCS(=O)(=O)c2ccc3c(c2)NC(=O)CO3)cc1OC
 : -4.1%[7.34 µM], -14.2%[7.34 µM]
- C(=C\c1ccccc1)/CN1CCN(C(c2cc3ccccc3o2)c2nnnn2Cc2ccccc2)CC1 (stereo unspecified)
 : -12.3%, 11.8%
- NC(=O)COc1ccccc1/C=C1/SC(=O)N(CC(=O)N2CCc3ccccc3C2)C1=O
 : -6.6%, 1.3%
- COC(=O)C1=C(c2ccccc2OCc2ccccc2)C[C@@H]2CC[C@H]1N2C
 : -13.3%, ?
- Cn1cnc2c(=O)oc3ccc(S(=O)(=O)N4CCN(c5cccc(C(F)(F)F)c5)CC4)cc3c21
 : -10.8%, -9.5%
- Cc1ccc[n+](CC(=O)c2ccc(NC(=O)c3ccccc3)cc2)c1
 : 2.4%, i
- Cc1ccccc1OCc1nc(-c2ccc(Br)o2)no1
 : 10.1%, 2.0%
- O=C(O)c1ccc(NS(=O)(=O)c2ccc(N3C(=O)CCC3=O)cc2)cc1
 : 19.9%, 0.8%
- CSc1c(CC(=O)Nc2ccc(F)cc2)n(Cc2ccccc2)c2ccccc12
 : -22.5%, -13.6%
- O=C(Cn1c(=O)oc2cc(S(=O)(=O)N3CCCC3)ccc21)N1CCN(c2ccccn2)CC1
 : -8.8%, i
- O=C(CSc1cccc[n+]1[O-])C12CC3CC(CC(C3)C1)C2
 : -3.1%, -1.2%
- Cc1oc2c(cc(NS(=O)(=O)c3ccc(C(C)C)cc3)c3ccccc32)c1C(=O)O
 : -3.6%&0.5%, ?
- Cc1ccc(S(=O)(=O)N2CCN(C(=O)c3nn(C(C)C)c(=O)c4ccccc34)CC2)cc1C
 : -29.8%, ·
- CN(C(=O)COC(=O)c1ccc(=O)n(Cc2ccccc2)n1)C1CCS(=O)(=O)C1 (stereo unspecified)
 : -5.0%, i
- Cn1c(SCC(=O)NNC(=O)Nc2ccccc2)nnc1-c1ccccc1
 : -17.7%, -10.6%
- Cc1cccc(CN2CCC(n3nccc3NC(=O)c3ccccc3C)CC2)n1
 : 0.2%, -14.3%
- O=S(=O)(c1cccs1)N1CCN(c2ccc(O)cc2)CC1
 : -21.4%, 3.98µM*
- O=C(NC(=S)Nc1ccc(Cc2ccncc2)cc1)c1ccc(F)cc1
 : -29.0%, -21.4%
- COc1ccc(CCNC(=O)c2cc(-c3ccccc3)c(N3CCOCC3)s2)cc1OC
 : -17.2%, i
- Cc1ccc(CNC(=O)Cn2c(=O)n(-c3ccc(C)cc3)c(=O)c3c2c2cc(C)ccc2n3C)cc1
 : 0.1%, -1.4%

(listing goes on)
Every second line gives: Vaccinia Venus, Vaccinia mCherry
- Cc1ccc(-n2nnnc2SCC(=O)NC(=O)Nc2ccc3c(c2)OCCO3)cc1
 : -19.8%, i
- Cn1ccnc1Sc1ccc(/C=N/NC(=O)c2ccccc2O)cc1[N+](=O)[O-]
 : -18.0%, -2.5%
- O=Cc1ccc(C(=O)OCC(=O)NCCC2=CCCCC2)cc1
 : -4.7%, -9.9%
- CCCc1cc(=O)oc2c3c(cc(OCC(=O)NCc4ccccn4)c12)OC(C)(C)CC3
 : -11.4%, -6.0%
- O=C(C1CCCO1)N1CCN(c2ncccn2)CC1 (stereo unspecified)
 : 7.7%, -3.1%
- COc1ccc(C(=O)Nc2ccccn2)cc1S(=O)(=O)N1CCOCC1
 : -13.3%, i
- O=C(CN1CCOCC1)N/N=C/c1ccc(-c2ccc(C(=O)O)cc2)o1
 : -11.6%, -15.9%
- CCOC(=O)[C@]12Cc3cc(Cl)ccc3[C@H]1N(Cc1ccccc1)C(=O)c1cc(OC)ccc12
 : ?, ?
- COc1ccc(CN(C)CC(=O)Nc2ccccc2C(F)(F)F)c(OC)c1
 : -7.8%, i
- CCCSCCCNC(=O)Cn1cc2c(n1)CCC(C)C2 (stereo unspecified)
 : -2.5%, -7.8%
- Cc1onc(-c2ccccc2)c1-c1ccnn1C(=O)NC(C)C
 : -14.5%, i
- CCOc1cc2c(cc1OCC)C(CC(=O)OC)N(C(=O)Nc1cc(OC)ccc1OC)CC2 (stereo unspecified)
 : -14.5%, -15.8%
- O=C(Oc1cccc(NC2=NS(=O)(=O)c3ccccc32)c1)c1ccncc1
 : -17.2%, i
- Nc1ncnc2c1nc(Cl)n2[C@@H]1O[C@H](CO)[C@@H](O)[C@@H]1O
 : 12.6µM*, ?
- O=C(NCc1ccc2c(c1)OCO2)c1ccc(CS(=O)Cc2ccc(Cl)cc2)o1 (stereo unspecified)
 : -9.3%, -17.3%
- COC(=O)c1ccc(C2C(C(C)=O)=C(C)Nc3ncnn32)cc1 (stereo unspecified)
 : -26.4%, i
- COc1ccc(C=O)cc1Cn1c(C)cc(C)c(C#N)c1=O
 : -11.6%, i
- COc1ccc(OC)c(NC(=O)c2ccc(NC3=NC4CS(=O)(=O)CC4S3)cc2)c1 (stereo unspecified)
 : -13.8%, i
- COc1ccc(NC2=CC(=O)CC(c3ccc(C)cc3)C2)c(OC)c1 (stereo unspecified)
 : -16.8%, -27.5%
- Cc1nc2ccccc2c(=O)n1/N=C/c1ccc(OC(F)F)cc1
 : -4.3%, -3.2%
- COc1ccc2nc(NCc3ccc(OC)c(OC)c3OC)sc2c1
 : -8.2%, ?
- O=C(c1ccncc1)N1CCN(C(=O)c2cccs2)CC1
 : -3.3%, -6.5%
- Cc1cc(C)c2sc(N(Cc3cccnc3)C(=O)CCOc3ccccc3)nc2c1
 : -5.8%, -11.9%
- O=C(CC12CC3CC(CC(C3)C1)C2)Nc1c(F)cccc1F
 : -6.5%, i
- C=C1CCN(C(C)C(=O)O)S(=O)(=O)c2ccccc21 (stereo unspecified)
 : -4.9%, -11.1%
- CCCc1cc(=O)oc2c3c(cc(OCC(=O)NCCN4CCOCC4)c12)OC(C)(C)CC3
 : -11.3%, -11.0%
- COCCN(C(=O)CSc1nc(N)cc(=O)[nH]1)c1c(N)n(Cc2ccccc2)c(=O)[nH]c1=O
 : 2.0%, -15.5%
- COc1cccc(-c2coc3c(C)c4oc(=O)c(CC(=O)O)c(C)c4cc23)c1
 : -1.7%, -11.2%
- COc1ccc(OC)c(NC(=O)c2ccc(NS(=O)(=O)c3c(C)noc3C)cc2)c1
 : -16.2%, -25.3%
- Cc1noc(C(=O)Nc2sc3c(c2C#N)CCC3)c1Cl
 : -17.9%, -25.2%
- COc1cccc(-n2cc(C(=O)OCc3ccc(Cl)cc3)c3ccccc3c2=O)c1
 : -13.0%, -8.2%
- CNS(=O)(=O)c1ccc(N=Cc2c(O)n(-c3cccc(C)c3)c(=O)[nH]c2=O)cc1
 : -0.3%, i
- Cc1ccccc1NC(=O)c1oc2c(c1C)-c1nn(Cc3cccc(Cl)c3)cc1CC2
 : -17.6%, -20.8%
- O=C(Nc1cc(S(=O)(=O)N2CCOCC2)ccc1-n1cncn1)c1ccc(Cl)cc1
 : -16.7%, -17.5%
- COc1cccc(NC(=S)NCc2ccco2)c1
 : -13.8%, i
- COc1ccc(-c2nn(-c3ccccc3)cc2C(=O)NC2CCCCC2C)cc1 (stereo unspecified)
 : -3.2%, -13.6%
- CCC12CN3CC(C)(CN(C1)C3c1ccc(O)cc1O)C2=O (stereo unspecified)
 : -10.4%, -2.8%
- CC(C)(C)OC(=O)N/N=C\c1ccc(OC(=O)c2cccs2)cc1
 : -11.3%, -10.7%
- CN(Cc1cccc(F)c1)C(=O)c1cc(=O)[nH]c2ccccc12
 : -4.3%, i
- O=C(NCc1ccccc1)C(=O)NCC1OCCCN1S(=O)(=O)c1cccs1 (stereo unspecified)
 : -20.7%, -1.7%
- COc1cc(-c2c(C#N)c(N)nc(SCc3ccncc3)c2C#N)cc(OC)c1OC
 : -22.5%, -12.5%
- CC(C)CCNC(=O)CCCC1=NS(=O)(=O)c2ccccc2N1
 : -4.7%, -14.2%
- Cc1cc(OCCn2nc(C(=O)O)c3ccccc3c2=O)ccc1C(C)C
 : -4.9%, -7.8%
- CC1CCCCN1CCNC(=O)CN1C(=O)COc2ccccc21 (stereo unspecified)
 : -0.5%, -13.1%
- O=C1CSC(=S)N1c1ccccc1
 : 20.7%, 1.9%

Screens (PubChem)
